LANA-H2A inh – blocks KSHV LANA binding to histone H2A/H2B; Q9QR71; cell-free LANA-H2A/H2B peptide, fluorescence polarization; inhibition, % (concentration not given with the values); 320,000 tested, 0.6% active; AID 2629; in the data active = inhibition mostly above about 10%, no sharp cut-off; inactive = mostly below about 6.7%;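 also: stock transfer was 7.5 nL into about 10 µL; 0% = median of vehicle wells and 100% = median of positive control wells; one replicate is shown; the record names a cut of 25% in any replicate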
ALR inh – human ALR oxidase inhibition via reduced H2O2. P55789. purified ALR, DTT oxidation, H2O2 HRP-luminol luminescence. inhibition, % (test concentration not listed). 290,000 tested, 3.8% active. AID 485317;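 active = mean and each replicate at 75% or more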;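 also: stock transfer was 7.5 nL into about 7.5 µL; 0% = neutral wells and 100% = wells with inactivated enzyme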
Target sequence (P55789 whole entry, looked up): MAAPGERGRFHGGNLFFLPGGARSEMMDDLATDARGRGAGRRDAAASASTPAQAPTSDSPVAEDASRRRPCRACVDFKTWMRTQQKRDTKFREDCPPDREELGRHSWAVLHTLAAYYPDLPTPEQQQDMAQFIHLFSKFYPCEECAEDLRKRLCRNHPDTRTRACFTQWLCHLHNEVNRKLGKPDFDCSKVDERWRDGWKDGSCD
Beta cell apopt – beta cell apoptosis inhibition. INS-1E cytokine-induced death, ATP luminescence, 48 h; percent of positive-control rescue, neutral wells zero. protection from apoptosis, % (concentration not given with the values). 300,000 tested, 0.8% active;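 active = all replicates at 75% or more, or half of them and the mean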;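 also: 0% = cytokine-treated negative control wells and 100% = positive control rescue; higher means more ATP so stronger rescue from cytokine killing; wells of about 40 µL received 100 nL stock; the first replicate is given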
Ecoli rRNA inh – inhibitors of bacterial rRNA selective over humanized ribosomes; E. coli WT GFP vs humanized-ribosome RFP mutants, fluorescence, 24 h; stronger effect = lower value; DMSO median 0, no signal -100; GFP signal change (wild-type ribosome), % (test concentration not listed); 350,000 tested, 1.6% active;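 active = significant combined selectivity score with lowered wild-type GFP, culture density cut under 30%, mutant RFP and density less affected; inactive = any of these conditions unmet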; also: one replicate is shown; some compounds called inactive have numbers as strong as hits
Calb FLC – C. albicans growth modulation with fluconazole. C. albicans CaCi-2 (fluconazole-resistant clinical isolate) + fluconazole, Alamar Blue growth, 48 h. growth inhibition, % (concentration not given with the values). 300,000 tested, 0.57% active. AID 1979;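 active = most replicates above 75%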;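 also: all wells also contain fluconazole at 8 µg/ml as a sub-toxic cotreatment; 0% = median of DMSO wells and 100% = median of geldanamycin control wells; wells of about 8 µL received 7.5 nL stock; the first replicate is given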
T cruzi inh – blocks replication of Trypanosoma cruzi; T. cruzi beta-gal in NIH3T3, luminescence, 90 h; inhibition, % (test concentration not listed); 300,000 tested, 1.4% active;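 active = mean inhibition across valid replicates above about 55%, limit read from the data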;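 also: signal also drops with host cell toxicity which is not excluded here; 0% = plate median of DMSO wells and 100% = zero luminescence signal; higher percent means less beta-gal luminescence so fewer parasites; stock transfer was 50 nL into about 50 µL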
B2AR ag – activates human beta-2 adrenergic receptor causing internalization; 340,000 tested, 0.43% active; Am2.2-beta2AR cells, FAP receptor internalization, flow cytometry; reference of the scale not given here; P07550; response, % (concentration not given with the values);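 active = response above a set limit, near 3 SD of response in nonfluorescent compounds, cut at about 42% in these data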;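 also: stock transfer was 100 nL into about 11 µL; a reference agonist was the positive control; negative values mostly stem from fluorescent compounds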
Target sequence (P07550 whole entry, looked up): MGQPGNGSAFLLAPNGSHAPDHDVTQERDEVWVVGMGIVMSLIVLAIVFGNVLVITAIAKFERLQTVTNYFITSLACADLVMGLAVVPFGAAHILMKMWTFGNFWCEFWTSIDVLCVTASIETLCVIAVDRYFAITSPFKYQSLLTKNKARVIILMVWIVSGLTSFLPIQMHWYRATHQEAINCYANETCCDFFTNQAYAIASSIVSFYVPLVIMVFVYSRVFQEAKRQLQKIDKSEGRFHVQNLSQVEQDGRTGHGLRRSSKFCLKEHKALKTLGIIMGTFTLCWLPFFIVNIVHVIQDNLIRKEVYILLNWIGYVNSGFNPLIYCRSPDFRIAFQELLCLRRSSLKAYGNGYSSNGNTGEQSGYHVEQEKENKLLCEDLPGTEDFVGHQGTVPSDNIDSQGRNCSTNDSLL
A1 inh – inhibitors of the anti-apoptotic protein A1, read as caspase activation; MEF A1-2A-BIM cells, Caspase-Glo 3/7 luminescence, 3 h; percent of clofoctol response, vehicle zero; caspase activation, % (concentration not given with the values); 330,000 tested, 0.066% active; AID 2462;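 active = over half of replicate activation scores above 10%, or exactly half above 10 with the replicate mean above 10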;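 also: wells of about 30 µL received 50 nL stock; many hits fall short of the cut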
Ecoli rRNA inh OD600 – recorded beside Ecoli rRNA inh, whose call it bears; OD600 change, %; measured here: OD600 growth;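 optical density of the mix in the first replicate; 0 = DMSO median and -100 = no signal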
Ecoli rRNA inh RFP – also measured in Ecoli rRNA inh; calls as there; RFP signal change, %; measured here: RFP humanized mutant strains;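 first replicate; 0 = DMSO median and -100 = no signal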
The depositor's hits bear a star. Some of the compounds tested; rates above refer to the full screens.

Screening COc1cc(C)c(NC(=S)Nc2cccc(Cl)c2)cc1OC returned LANA-H2A inh 0.2, ALR inh 3, Beta cell apopt -5, Calb FLC -13, T cruzi inh -7, B2AR ag 11 and A1 inh -1.4.
Screening Cc1cc(C(=O)N/N=C/c2ccc3ccccc3c2)n[nH]1 returned LANA-H2A inh 0.1, ALR inh -1, Beta cell apopt 5, Ecoli rRNA inh 8, Calb FLC -22, B2AR ag -4, A1 inh 2.2, Ecoli rRNA inh OD600 14 and Ecoli rRNA inh RFP 1.0.
COc1cccc(CN2CCNC(=O)C2CC(=O)N(C)C2CCOCC2)c1OC (centres undefined) was read as LANA-H2A inh -5.6, ALR inh -30, Ecoli rRNA inh 3, Calb FLC -5, T cruzi inh -2, B2AR ag -3, A1 inh 0.5, Ecoli rRNA inh OD600 7 and Ecoli rRNA inh RFP -0.5.
CC(=O)N1CCN(Cc2nc3cc(NC(=O)Cn4nc(C)c5ccccc5c4=O)ccc3n2C)CC1 was read as LANA-H2A inh -6.1, ALR inh -1, Beta cell apopt -2, Calb FLC -7, T cruzi inh -7, B2AR ag 2 and A1 inh 1.5.
For CC(=O)c1sc(NS(=O)(=O)c2ccc(C)cc2)nc1-c1ccccc1 the results were LANA-H2A inh 9.5, ALR inh 5, Beta cell apopt -6, Ecoli rRNA inh 1, Calb FLC 49, T cruzi inh -6, B2AR ag 5, A1 inh -0.2, Ecoli rRNA inh OD600 -19 and Ecoli rRNA inh RFP 3.5.
For COc1ccccc1C(=O)Nc1cccc(C(=O)N2CCOCC2)c1 the results were LANA-H2A inh -3.8, ALR inh -2, Beta cell apopt 0, Ecoli rRNA inh 3, Calb FLC -8, T cruzi inh -10, B2AR ag -3, A1 inh 0.1, Ecoli rRNA inh OD600 4 and Ecoli rRNA inh RFP -0.4.
Screening Brc1cccc(-c2nnc3n2CCC3)c1 returned LANA-H2A inh 2.1, ALR inh -17, Beta cell apopt -3, Ecoli rRNA inh 6, Calb FLC -11, T cruzi inh -9, B2AR ag -11, A1 inh -0.1, Ecoli rRNA inh OD600 5 and Ecoli rRNA inh RFP -4.8.
For CC(=O)c1ccc(NC(=O)c2cnn3ccccc23)cc1 the results were LANA-H2A inh -1.5, ALR inh 21, Beta cell apopt 0, Ecoli rRNA inh -5, Calb FLC -2, T cruzi inh -12, B2AR ag -11, Ecoli rRNA inh OD600 3 and Ecoli rRNA inh RFP -1.4.
CCn1c(=O)cc(SCC(=O)NCc2ccc(C)o2)c2ccccc21 was read as LANA-H2A inh 0.6, ALR inh 98*, Beta cell apopt -17, Calb FLC 2, T cruzi inh -1, B2AR ag -8 and A1 inh -0.3.
O=C(NCCc1ccccc1)/C(=N\O)c1ccccc1 was read as LANA-H2A inh -0.3, ALR inh -2, Beta cell apopt 5, Calb FLC 1, T cruzi inh 7, B2AR ag 11 and A1 inh 1.3.
For O=C(/C=C/c1ccccc1[N+](=O)[O-])N1CCN(c2ccccc2F)CC1 the results were LANA-H2A inh 0.0, ALR inh 27, Beta cell apopt -3, Ecoli rRNA inh -11, Calb FLC -10, T cruzi inh -8, B2AR ag -4, A1 inh 0.0, Ecoli rRNA inh OD600 -11 and Ecoli rRNA inh RFP -2.7.
`CC1=CC(c2ccccc2)n2nnnc2N1` (centres undefined) gave LANA-H2A inh 1.4, ALR inh -3, Beta cell apopt -13, Ecoli rRNA inh 29, Calb FLC -6, T cruzi inh -5, B2AR ag -11, A1 inh -0.3, Ecoli rRNA inh OD600 18 and Ecoli rRNA inh RFP 4.8.
For c1ccc(C2CNCCc3ccccc32)cc1 (centres undefined) the results were LANA-H2A inh -0.1, ALR inh -2, Beta cell apopt 8, Ecoli rRNA inh -2, Calb FLC -7, T cruzi inh -5, B2AR ag -5, A1 inh 1.0, Ecoli rRNA inh OD600 -7 and Ecoli rRNA inh RFP -2.2.
Screening CC(=O)Nc1ccccc1Sc1ccccc1 returned LANA-H2A inh 1.2, ALR inh -56, Beta cell apopt -8, Ecoli rRNA inh 5, Calb FLC 6, T cruzi inh -15, B2AR ag -9, A1 inh -0.8, Ecoli rRNA inh OD600 8 and Ecoli rRNA inh RFP -6.9.
Screening O=C(NCCc1c[nH]c2ccccc12)c1ccc(F)cc1F returned LANA-H2A inh 3.1, Beta cell apopt -2, Ecoli rRNA inh 2, Calb FLC 3, T cruzi inh 1, B2AR ag 12, A1 inh 1.1, Ecoli rRNA inh OD600 -2 and Ecoli rRNA inh RFP 0.7.
Screening COc1cc(C=NNC(=O)c2ccc(NS(=O)(=O)c3cccs3)cc2)cc(Br)c1O returned LANA-H2A inh -4.2, ALR inh 78*, Beta cell apopt -2, Ecoli rRNA inh -31*, B2AR ag 8, A1 inh -0.2, Ecoli rRNA inh OD600 0.6* and Ecoli rRNA inh RFP 5.3*.
`O=C(CN1CCc2ccccc21)NC(=O)NCc1ccco1` gave LANA-H2A inh -2.2, Beta cell apopt 5, Calb FLC -5, T cruzi inh -12, B2AR ag 1 and A1 inh -0.3.
`O=C(Nc1ccc(S(=O)(=O)Nc2ncccn2)cc1)C1CC(=O)N(c2ccc(Cl)cc2)C1` (centres undefined) gave LANA-H2A inh 3.4, ALR inh -6, Beta cell apopt -5, Ecoli rRNA inh 1, Calb FLC -1, T cruzi inh -3, B2AR ag 2, A1 inh 0.2, Ecoli rRNA inh OD600 -6 and Ecoli rRNA inh RFP 2.3.
`C=CCOC(=O)c1cn(CC)c2nc(C)ccc2c1=O` gave LANA-H2A inh 3.7, ALR inh -12, Beta cell apopt -3, Ecoli rRNA inh -25*, Calb FLC 2, T cruzi inh 1, B2AR ag 12, A1 inh -0.8, Ecoli rRNA inh OD600 -16* and Ecoli rRNA inh RFP 1.9*.
For COc1ccccc1N1CCN(C(=O)c2cc(=O)c3c(C)cc(C)cc3o2)CC1 the results were LANA-H2A inh 2.8, ALR inh -17, Beta cell apopt -3, Ecoli rRNA inh -2, Calb FLC 3, T cruzi inh 7, B2AR ag -3, A1 inh 2.2, Ecoli rRNA inh OD600 0 and Ecoli rRNA inh RFP 0.7.
Screening Cc1cccc(-n2c(SCC(=O)NCc3ccco3)nnc2-c2ccco2)c1 returned LANA-H2A inh -4.0, ALR inh -1, Beta cell apopt -1, Calb FLC -12, T cruzi inh -1, B2AR ag 0 and A1 inh -0.3.
Screening Cc1nonc1C(=O)N/N=C/c1cc2c(cc1Br)OCO2 returned LANA-H2A inh 1.8, ALR inh -2, Beta cell apopt -2, Ecoli rRNA inh 3, Calb FLC 10, T cruzi inh 3, B2AR ag 9, A1 inh -12, Ecoli rRNA inh OD600 -1 and Ecoli rRNA inh RFP 3.0.
For CCOC(=O)c1csc(NC(=O)CCSc2ccccc2)n1 the results were LANA-H2A inh 0.0, ALR inh -7, Beta cell apopt 1, Ecoli rRNA inh 4, Calb FLC -1, T cruzi inh -17, B2AR ag 4, A1 inh 1.8, Ecoli rRNA inh OD600 0 and Ecoli rRNA inh RFP 3.2.
For Cc1occc1-c1nnc(SCC(=O)N2CCOCC2)n1CCc1ccccc1 the results were LANA-H2A inh -1.3, ALR inh -19, Beta cell apopt 1, Calb FLC -9, T cruzi inh -5, B2AR ag 0 and A1 inh 0.2.
For CC(C)c1ccc(NC(=O)CNC(=O)Cn2cnc3ccccc3c2=O)cc1 the results were LANA-H2A inh -5.3, ALR inh -2, Beta cell apopt -10, Ecoli rRNA inh 2, Calb FLC 11, T cruzi inh 7, B2AR ag 2, A1 inh 0.3, Ecoli rRNA inh OD600 2 and Ecoli rRNA inh RFP -0.5.
For CN(C)S(=O)(=O)c1ccc(Cl)c(NC(=O)COC(=O)CCSc2ccccc2)c1 the results were LANA-H2A inh 1.4, ALR inh -21, Beta cell apopt -4, Calb FLC 22, T cruzi inh -10, B2AR ag 9 and A1 inh -0.2.
`O=c1c2c(nc3c(-c4ccc(Cl)cc4)c[nH]n13)CCCC2` gave LANA-H2A inh -10, ALR inh 63, Beta cell apopt 93*, Calb FLC 5, T cruzi inh -7, B2AR ag 0 and A1 inh -0.2.
`CCOC(=O)C1=C(C)Nc2ccccc2N/C1=N\S(=O)(=O)c1cccc(Cl)c1` gave LANA-H2A inh 1.0, ALR inh 1, Beta cell apopt 5, Ecoli rRNA inh -16, B2AR ag 1, A1 inh 0.4, Ecoli rRNA inh OD600 -31 and Ecoli rRNA inh RFP -5.2.
Screening O=C(NCc1ccccc1)c1cncc(Br)c1 returned LANA-H2A inh -2.6, ALR inh 0, Beta cell apopt -2, Ecoli rRNA inh 4, Calb FLC -20, T cruzi inh -2, B2AR ag -8, A1 inh 3.1, Ecoli rRNA inh OD600 11 and Ecoli rRNA inh RFP -4.4.
`CCC1=NN(C(=O)CCc2ccccc2)C(O)(C(F)(F)F)C1` (centres undefined) gave LANA-H2A inh 1.1, ALR inh -7, Beta cell apopt 8, Ecoli rRNA inh 5, Calb FLC -1, T cruzi inh -8, B2AR ag -13, A1 inh -0.1, Ecoli rRNA inh OD600 8 and Ecoli rRNA inh RFP 2.7.
COc1cc2ccccc2cc1C(=O)N/N=C/c1ccc2c(c1)OCO2 was read as LANA-H2A inh -0.8, ALR inh 0, Beta cell apopt 4, Ecoli rRNA inh 2, Calb FLC 32, T cruzi inh -22, B2AR ag 28, A1 inh -0.6, Ecoli rRNA inh OD600 10 and Ecoli rRNA inh RFP 4.2.
`CCOc1cc(C(=O)Nc2ccncc2)cc(OCC)c1OCC` gave LANA-H2A inh -2.4, ALR inh -1, Beta cell apopt 12, Ecoli rRNA inh -11, Calb FLC -8, T cruzi inh 31, B2AR ag 0, A1 inh 1.3, Ecoli rRNA inh OD600 -7 and Ecoli rRNA inh RFP -3.7.
Screening COc1ccccc1-c1nnc(N(C)C(=O)C2CCCO2)s1 (centres undefined) returned LANA-H2A inh 4.8, ALR inh -1, Beta cell apopt 3, Calb FLC 2, T cruzi inh 2, B2AR ag -11 and A1 inh 0.8.
For COCCCC1CCN(C(=O)c2cc(COc3cc(C)ccc3C)on2)CC1 the results were LANA-H2A inh 2.4, ALR inh -2, Beta cell apopt -1, Ecoli rRNA inh -37, Calb FLC -16, T cruzi inh 16, B2AR ag -6, A1 inh -1.7, Ecoli rRNA inh OD600 -51 and Ecoli rRNA inh RFP -3.7.
For Cc1nc(SCC(=O)Nc2ccccc2Cl)c2c(C)c(C)sc2n1 the results were LANA-H2A inh -4.7, ALR inh -1, Beta cell apopt 5, Ecoli rRNA inh -1, B2AR ag 4, A1 inh -0.6, Ecoli rRNA inh OD600 7 and Ecoli rRNA inh RFP -5.5.
Screening CCCOC(=O)C1=C(C)NC2=C(C(=O)CCC2)C1c1cc(OC)ccc1OC (centres undefined) returned LANA-H2A inh 2.5, ALR inh -27, Beta cell apopt 1, Calb FLC -1, T cruzi inh 5, B2AR ag -21 and A1 inh 0.1.
COc1cc(/C=C/C(=O)N2CCCc3ccccc32)cc(OC)c1OC was read as LANA-H2A inh 1.3, ALR inh -9, Beta cell apopt -4, Ecoli rRNA inh -8, Calb FLC 17, T cruzi inh 1, B2AR ag 3, A1 inh 0.8, Ecoli rRNA inh OD600 -6 and Ecoli rRNA inh RFP 0.1.
